Screens from PubChem BioAssay.
YopH inh – blocks Yersinia enterocolitica YopH tyrosine phosphatase. fluorescence Ex485/Em525. inhibition, %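 (about 10 µM by stock and volumes)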. actives 0.16% (n = 140,000). AID 898;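 active means inhibition of 50% or more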;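 further: controls were vehicle for no effect and minimum signal wells for full effect; inactives centre near -20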
RecA intein inh – blocks M. tuberculosis RecA intein splicing. actives 0.75% (n = 290,000). P9WHJ3. inhibition, %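 (about 9 µM by stock and volumes)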. cell-free RecA intein splicing, fluorescence; in the data active means inhibition above about 30%; inconclusive means no clear call, values can overlap the other calls;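 further: 0% = vehicle wells and 100% = reference inhibitor control wells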
Target sequence (P9WHJ3 whole entry, looked up): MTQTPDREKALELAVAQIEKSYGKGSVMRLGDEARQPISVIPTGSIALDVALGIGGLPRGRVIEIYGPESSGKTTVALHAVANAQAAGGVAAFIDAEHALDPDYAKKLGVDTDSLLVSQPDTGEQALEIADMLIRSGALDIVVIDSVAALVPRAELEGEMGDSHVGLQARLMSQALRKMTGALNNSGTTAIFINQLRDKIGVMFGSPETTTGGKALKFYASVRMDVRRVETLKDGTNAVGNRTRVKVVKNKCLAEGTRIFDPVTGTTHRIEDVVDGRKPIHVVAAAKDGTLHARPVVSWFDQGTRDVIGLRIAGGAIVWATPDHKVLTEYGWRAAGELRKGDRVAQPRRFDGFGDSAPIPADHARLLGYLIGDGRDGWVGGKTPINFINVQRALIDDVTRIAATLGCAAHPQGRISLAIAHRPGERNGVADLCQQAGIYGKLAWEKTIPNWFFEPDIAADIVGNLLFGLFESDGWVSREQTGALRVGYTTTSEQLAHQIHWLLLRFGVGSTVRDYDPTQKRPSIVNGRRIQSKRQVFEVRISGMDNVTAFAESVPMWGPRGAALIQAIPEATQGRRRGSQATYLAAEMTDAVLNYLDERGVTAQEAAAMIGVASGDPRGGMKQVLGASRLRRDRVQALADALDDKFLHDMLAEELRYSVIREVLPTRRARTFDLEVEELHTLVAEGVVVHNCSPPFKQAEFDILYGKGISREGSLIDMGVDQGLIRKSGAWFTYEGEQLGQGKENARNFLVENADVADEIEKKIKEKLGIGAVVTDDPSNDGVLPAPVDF
Arbovirus anti – arbovirus infection inhibition. arbovirus infection cell-based antiviral screen. inhibition, % at 10 µM. actives 0.37% (n = 200,000). AID 1251;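 active means inhibition from about 30%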;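 further: bluetongue infection of BSR cells; cell survival read as ATP light after 72 h; 0% = infected wells without compound and 100% = uninfected wells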
Mtb betalactam – beta-lactam sensitization of Mtb H37Rv; actives 0.27% (n = 330,000); inhibition, % at 25 µM; M. tuberculosis H37Rv growth with meropenem, percent inhibition; hits of this screen are not shown here;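 active means about 74% or more and at least 40 points above the plate without the antibiotic, then above 30% in a dose series; inconclusive means first-round hits that could not be retested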;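 further: growth measured after seven days incubation then overnight dye step; 0% = bacteria only wells and 100% = bacteria with antibiotic; twin plates without the antibiotic show which effects depend on it; some results filed as inactive read as strong as hits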
Mtb H37Rv – M. tuberculosis H37Rv growth inhibitors, H37Rv strain (AID 1626); actives 0.95% (n = 220,000); inhibition, % at 10 µM, or IC50 in µM where a hit was titrated; M. tuberculosis H37Rv growth inhibition; higher % means a stronger effect;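 active means confirmed in a dose series; inconclusive means inhibition above 80% but not taken into the dose series; inactive means below 80% or under 30% at every dose of the series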;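 further: bacteria incubated seven days before Alamar blue readout; 0% = bacteria only wells and 100% = bacteria with antibiotic wells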
Arbovirus anti repeat – also measured in Arbovirus anti; calls as there; inhibition, %; measured here: 10K subset replicate screen; many hits read low in the repeat;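 first of two repeat runs on a subset; 0% = infected and 100% = uninfected wells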
Numbers without * were called inactive; ? = inconclusive; · = no result given. Only part of the results is shown; the hit share may differ from the screen's.

SMILES	YopH inh	RecA intein inh	Arbovirus anti	Mtb betalactam	Mtb H37Rv	others
CCc1ccccc1NC(=O)C1(S(=O)(=O)c2ccc(C)cc2)CC1	·	1.3	·	0	·
O=S1(=O)CCOC[C@H](c2ccccc2)N1Cc1ccccc1F	·	-2.1	·	-11	·
CCCCn1c(=O)c(C(=O)Nc2ccccc2N)c(O)c2ccccc21	·	-6.2	·	8	·
Cc1nn(-c2ccccc2)c(C)c1NC(=O)COC(=O)CCc1ccccc1	·	-1.3	·	-4	·
COc1ccccc1Oc1c(C)oc2c(CN3CCN(CCO)CC3)c(O)ccc2c1=O	1	-3.8	0	-19	·
Cc1ccc(NC(=O)c2ccc(Cl)c(N3C(=O)CCC3=O)c2)cc1	·	-4.3	·	-1	·
O=C(c1ccccc1)N1CCN(CC(O)COCC2CC=CCC2)CC1 (stereo unspecified)	-46	0.4	1	0	-14%
Cc1cc(C(=O)NCc2ccccc2Br)no1	-4	2.1	-6	-10	0%
N#CC1=C(N)S[C@@H](C(=O)c2ccc(F)cc2)[C@@H]1c1cccs1	-27	4.6	-24	0	-8%
COc1ccccc1NC(=O)CSc1nnnn1Cc1ccccc1	-29	6.0	0	2	-12%
O=S(=O)(c1ccc2ccccc2c1)N1CCN(C(=S)Nc2ccc(F)cc2)CC1	-22	0.4	10	-1	-11%
Cc1ccc(C)n1-c1ccc(-c2ccnc(N)n2)cc1	·	·	-5	·	44%
C=CCON/C(CCC)=C1\C(=O)C(C(=O)OC)C(C)(C)CC1=NC (stereo unspecified)	·	0.3	1	0	5%
COc1ccc(C(=O)N2CC(=O)Nc3ccc(F)cc3C2c2ccccc2)cc1 (stereo unspecified)	·	3.5	·	1	·
Cc1cc(C)n(CC(O)CN(c2ccccc2)S(=O)(=O)c2ccc3ccccc3c2)n1 (stereo unspecified)	-10	14	4	6	4%
COc1cccc(N(CC(=O)N/N=C(\C)c2cccs2)S(C)(=O)=O)c1	-34	1.7	-11	-12	-11%
CC1CCN(CCC(=O)Nc2ccc(F)c(F)c2)CC1	·	0.4	·	-4	·
O=C(NCc1ccc2c(c1)OCO2)c1ccc(=O)[nH]c1	-4	0.8	2	-5	8%
O=C(O)Cn1nc(-c2ccccc2)c2ccccc2c1=O	-27	-1.2	7	-26	-22%
O=C(CSc1nnc(-c2ccco2)n1-c1ccccc1)N1CCOCC1	4	-0.9	-3	-18	-4%
CCNC(=S)N=Nc1c(O)[nH]c2ccc([N+](=O)[O-])cc12	·	45*	-2	-5	4%
Cc1ccc(/C=N/NC(=O)c2nn(C)cc2Cl)cc1	-27	-0.3	9	4	13%
CCCCCC(=O)Nc1ccc(C(=O)N/N=C/c2ccc([N+](=O)[O-])cc2)cc1	-25	-2.7	-23	-2	-2%
CCOC(=O)c1c(NC(=S)Nc2ccccc2)sc2c1CC(C)(C)SC2	-10	0.0	5	5	-1%
CCOC(=O)c1nc(N)c(C(=O)OCC)[nH]1	-2	-2.0	0	-10	8%
CC(=O)Oc1ccc2c(=O)c(Oc3ccccc3[N+](=O)[O-])coc2c1	-36	0.2	2	-1	0%
Cc1ccc(-n2c3c(c(O)c(-c4ccccc4)c2=O)C(=O)CC(C)(C)C3)cc1	-26	-0.2	6	7	6%
Cc1ccc(S(=O)(=O)N(C)CCCC(=O)Nc2ccc(C)cc2C)cc1	-29	-2.3	-10	-6	9%
CCOC(=O)N1CCN(CC(=O)Nc2cc3c(cc2C(C)=O)OCO3)CC1	-23	-0.2	-3	?	5%	Arbovirus anti repeat=1
O=C(COc1ccc(-c2nnco2)cc1)Nc1c(Cl)cccc1C(F)(F)F	·	-1.6	·	-8	·
COc1ccc(-c2cnc3c(-c4ccc(F)cc4)cnn3c2N)cc1	·	-1.0	·	-5	·
Cc1cc(NC2CCCCC2)nc2ccccc12	·	-0.2	-3	10	7%
O=S1(=O)N=C2CCCCCN2C(c2ccc(Br)cc2)N1 (stereo unspecified)	·	·	-4	0	0%
COCCN(C(=O)CCC(=O)Nc1nccs1)C(C(=O)NCCC(C)C)c1ccc(OC)cc1 (stereo unspecified)	·	-0.2	·	-8	·
O=C(NCCCc1ccccc1)c1ccc(Br)o1	1	1.6	4	-21	3%
Cc1cc(C)n(C/C=C/Cn2nc(C)cc2C)n1	-15	-1.7	-2	-12	-3%
COc1ccc(-c2noc(CN(Cc3nccn3C)C(C)C)n2)cc1	·	1.1	·	-1	0%
CCCC(C)NC(=O)CSc1nc(-c2ccccc2)cn1N (stereo unspecified)	·	-5.0	1	0	-3%
O=C(NC1CC1)c1ccc2c3c(cccc13)CC2	-14	-0.4	-5	2	2%
Cc1ccc(S(=O)(=O)Nc2cccc(C(=O)NCCCN3CCOCC3)c2)cc1F	·	-0.6	·	-1	·
CCCCNC(=O)CS(=O)Cc1nc(-c2cccc(C)c2)oc1C (stereo unspecified)	-16	1.1	2	-1	-3%	Arbovirus anti repeat=-4
O=C1N[C@@H](Cc2ccccc2)C(=O)N2[C@H]1C[C@]1(Br)c3ccccc3N(S(=O)(=O)c3ccccc3)[C@H]21	·	5.8	·	-8	·
Cn1ncc(Br)c1C(=O)NC1C2CC3CC(C2)CC1C3 (stereo unspecified)	-29	-3.1	8	8	10%
COc1cc(C)c(CN2CCN(c3ncccn3)CC2)cc1C	·	-4.0	·	-3	·
N#CCCN(C(=O)COC(=O)c1ccc2c(c1)NC(=O)CS2)c1ccc2c(c1)OCCO2	-43	1.6	0	-8	4%
O=C(CSc1ncn[nH]1)c1cccc([N+](=O)[O-])c1	-12	·	3	1	-6%
CS(=O)(=O)N(Cc1ccc(Cl)cc1)c1ccc(C(=O)Nc2cccnc2)cc1	-10	8.6	11	10	-9%
Cc1cccc(NC(=O)Cn2nnc(C(=O)NCc3ccco3)c2N)c1	·	1.3	-4	-4	-8%
Cc1ccccc1-c1noc(CNC(=O)COc2ccccc2)n1	·	1.5	·	9	·
COc1cc2nc3occc3c(OC)c2cc1OC	-30	-1.5	-15	7	-13%
C#CCSc1nnc(CSc2nc3ccccc3s2)n1-c1ccccc1	-22	25	-7	17	-6%
CC1(C)Cc2c(sc3nc4n(-c5ccccc5)cnn4c(=O)c23)CO1	·	1.1	·	-3	-8%
COc1ccc(Cl)cc1C(=O)NCC(C)C	-12	1.3	7	7	-3%	Arbovirus anti repeat=-2
Cc1ccnc(NC(=O)c2cc(F)c(F)cc2Cl)n1	·	2.0	·	4	·
CCCCCc1cc(=O)oc2c(C(CCN3CCCCC3)c3ccc4c(c3)OCO4)c(OC)cc(OC)c12 (stereo unspecified)	·	19	·	100	?
CCC1Oc2ccccc2N(CC(=O)Nc2ccc(OC)cc2OC)C1=O (stereo unspecified)	29	0.7	4	-5	0%
COc1ccc2c(c1)CC[C@@H]1[C@@H]2CC[C@]2(C)[C@@H](C(C)=O)C[C@@H]12	·	-1.0	·	-3	·
NNC(=S)NC1CCS(=O)(=O)C1 (stereo unspecified)	·	·	·	-10	2%
O=C(CSc1ncnc2nc[nH]c12)c1ccc2ccccc2c1	-19	·	3	1	12%
CCn1nc(C(=O)OCC(=O)Nc2nc(-c3ccc(OC)cc3)cs2)c2ccccc2c1=O	-14	3.3	-14	31	10%

Continued; it opens with the 7 that closed the last part.
SMILES	YopH inh	RecA intein inh	Arbovirus anti	Mtb betalactam	Mtb H37Rv	others
Cc1ccnc(NC(=O)c2cc(F)c(F)cc2Cl)n1	·	2.0	·	4	·
CCCCCc1cc(=O)oc2c(C(CCN3CCCCC3)c3ccc4c(c3)OCO4)c(OC)cc(OC)c12 (stereo unspecified)	·	19	·	100	?
CCC1Oc2ccccc2N(CC(=O)Nc2ccc(OC)cc2OC)C1=O (stereo unspecified)	29	0.7	4	-5	0%
COc1ccc2c(c1)CC[C@@H]1[C@@H]2CC[C@]2(C)[C@@H](C(C)=O)C[C@@H]12	·	-1.0	·	-3	·
NNC(=S)NC1CCS(=O)(=O)C1 (stereo unspecified)	·	·	·	-10	2%
O=C(CSc1ncnc2nc[nH]c12)c1ccc2ccccc2c1	-19	·	3	1	12%
CCn1nc(C(=O)OCC(=O)Nc2nc(-c3ccc(OC)cc3)cs2)c2ccccc2c1=O	-14	3.3	-14	31	10%
Cc1ccc(S(=O)(=O)N2CCN(c3ccccc3)CC2)cc1C(=O)NC1CCCCC1	·	-0.3	·	5	·
COc1ccccc1CCNC(=O)CSc1nnc2ccc(-c3ccncc3)nn12	·	-3.5	-1	2	0%
COc1ccc(-c2csc(NC(=O)c3ccc(S(C)(=O)=O)cc3)n2)cc1	·	6.3	8	9	0%
Cc1cccc(C(=O)N2CCCC(Nc3ccc(C(C)C)cc3)C2)n1 (stereo unspecified)	·	0.7	·	-2	·
Cc1cccc(/C(N)=N/OC(=O)c2ccco2)c1	-16	1.9	-1	-8	-4%
S=C(NCc1ccccn1)Nc1ccc(Cl)cc1	-14	-0.7	0	-7	-1%
CN1CCN(C(=O)c2cc(COc3c(F)cccc3F)on2)CC1c1ccccc1 (stereo unspecified)	·	0.8	-5	5	-1%
CCC(C)NC(=O)COC(=O)c1cc([N+](=O)[O-])ccc1Sc1nc(C)cs1 (stereo unspecified)	4	3.0	7	-22	·
Cc1ccc([N+](=O)[O-])cc1NC(=O)C(C)NS(=O)(=O)c1ccc(F)cc1 (stereo unspecified)	·	-0.7	4	-5	5%
CC(C)NC(=O)c1ccccc1-c1ccccc1	-4	4.3	-2	87	-6%
Cc1n[nH]c(C)c1CCC(=O)N/N=C/C=C/c1ccccc1	-1	-1.2	2	-3	-6%
C/C(=N\Nc1ccc(C(F)(F)F)cn1)c1ccncc1	·	0.7	-6	-2	5%
COc1ccc(-n2c(=O)[nH]c3cc(C(=O)NCCc4ccccc4)ccc3c2=O)cc1OC	·	-0.8	·	-1	·
CC(C)CNC(=O)c1cccc(C(=O)NCC(C)C)c1	-72	3.1	4	2	1%
Cc1noc(C)c1S(=O)(=O)N1CCC(C(=O)NCCCN2CC(C)CC(C)C2)CC1 (stereo unspecified)	·	0.7	1	5	6%
Nc1c(C(=O)N2CCOCC2)sc2nc3c(cc12)CCC3	·	-1.3	-2	-10	-2%
c1ccc(N2CCN(c3cnccn3)CC2)nc1	-45	0.7	1	-1	11%
C=CCn1c(SCCC#N)nnc1-c1ccncc1	4	2.5	6	12	-4%	Arbovirus anti repeat=0
COc1ccc(C2SCC(=O)N2c2c(C)n(C)n(-c3ccccc3)c2=O)c(OC)c1 (stereo unspecified)	-5	-2.7	-7	0	-8%
Cc1ccc2[nH]c(-c3ccccc3)c(CN3CCN(C)CC3)c(=O)c2c1	-9	-1.2	9	0	-10%
Nc1nonc1-n1nnc(C(=O)N/N=C/c2cccc(Cl)c2)c1CN1CCCC1	·	-1.9	·	-5	·
Cc1c(NC(=S)NCc2ccc(F)cc2)cccc1[N+](=O)[O-]	-6	3.6	14	-3	-3%
Cc1ccc2sc(C)[n+](CCCS(=O)(=O)[O-])c2c1	·	·	1	-6	-9%
CCN(c1ccccc1)S(=O)(=O)c1ccc(Oc2ccc([N+](=O)[O-])cc2)nc1	·	-1.9	·	0	·
Nc1cc(=O)[nH]c(SCC(=O)NCC2CCCO2)n1 (stereo unspecified)	-47	-0.8	1	-8	1%
Cc1cccc(NC(=O)C(C)N2CC=C(c3ccccc3)CC2)c1 (stereo unspecified)	·	7.0	23	-3	2%

Filtered by structure: the entries above with bromine.
SMILES	YopH inh	RecA intein inh	Arbovirus anti	Mtb betalactam	Mtb H37Rv	others
Cc1cc(C(=O)NCc2ccccc2Br)no1	-4	2.1	-6	-10	0%
O=S1(=O)N=C2CCCCCN2C(c2ccc(Br)cc2)N1 (stereo unspecified)	·	·	-4	0	0%
O=C(NCCCc1ccccc1)c1ccc(Br)o1	1	1.6	4	-21	3%
O=C1N[C@@H](Cc2ccccc2)C(=O)N2[C@H]1C[C@]1(Br)c3ccccc3N(S(=O)(=O)c3ccccc3)[C@H]21	·	5.8	·	-8	·
Cn1ncc(Br)c1C(=O)NC1C2CC3CC(C2)CC1C3 (stereo unspecified)	-29	-3.1	8	8	10%
